H5N1 CPE: MDCK cell protection from H5N1 avian flu. cytopathic effect, luminescence, 72 h; hits give high values; no value below 0 was filed and about half of the inactive calls have no number; reference of the scale not given here. inhibition, % at 50 µM. hit rate 0.07% among 96,000; in the data active means inhibition above about 25%
* = called active by the depositor; i = inactive. A portion of the library; rates above refer to the full screens.

SMILES | H5N1 CPE
COc1ccc(S(=O)(=O)N2CCCC2C(=O)Nn2cnnc2)cc1 (stereo unspecified) | 0.2
COCCNC(=O)c1ccc(N2CCCCC2)c(NS(=O)(=O)c2ccc(C)cc2)c1 | i
CCN(CC)C(=O)c1ccc(NC(=O)Cn2nc(C)c3ccccc3c2=O)cc1 | 0.1
Cc1ccc2oc(=O)n(CCOc3ccccc3Cl)c2c1 | 1.6
COc1ccc(/C(O)=C2/C(=O)C(=O)N(CCN(C)C)C2c2ccccc2)cc1Cl (stereo unspecified) | i
CCC(=O)N(CC)c1nc(-c2ccc(OC)cc2)cs1 | i
O=C(NC1CCCC1)C(c1ccc(O)cc1)N(CC1CCCO1)C(=O)C1COc2ccccc2O1 (stereo unspecified) | i
COc1ccc(OCC(O)Cn2c(Nc3ccccc3)nc3c2c(=O)n(C)c(=O)n3C)cc1 (stereo unspecified) | 2.3
CS(=O)(=O)N1CCN(c2ccc([N+](=O)[O-])c(N3CCOCC3)c2)CC1 | 0.1
CSc1nnc(NC(=O)CCc2ccccc2)s1 | i
O=C(NCc1ccco1)c1c[nH]c2ccc(S(=O)(=O)N3CCOCC3)cc2c1=O | 1.6
COC(=O)c1sc(S(=O)(=O)N2CCC(C(N)=O)CC2)c(C(=O)OC)c1C | 0.5
Cc1cc2c(c(Sc3ccccc3)n1)C(=O)OC2 | 0.6
Cc1ccc(C(=O)/C=C/Nc2ccccc2C(N)=O)o1 | 0.1
C=CCn1c(SCC(=O)Nc2cc(C)on2)nc2sc(C)c(C)c2c1=O | 6.0
COc1cc(C(=O)Nc2nc(OC)c(-c3ccccc3)c(OC)n2)cc(OC)c1OC | i
O=C(NCc1ccco1)C1CCCCN1S(=O)(=O)c1ccc(F)cc1 (stereo unspecified) | i
CC1=CC(=O)C=CC1(C)C(Cl)Cl (stereo unspecified) | i
CCc1ccccc1N(C)C(=O)CCc1nc(-c2ccc(C)cc2)no1 | i
O=C(CCc1ccc(S(=O)(=O)N2CCOCC2)cc1)NCCCN1CCCC1=O | 1.6

Taken from above.
Reading of `COC(=O)c1sc(S(=O)(=O)N2CCC(C(N)=O)CC2)c(C(=O)OC)c1C` under H5N1 CPE: 0.5
Reading of `Cc1ccc2oc(=O)n(CCOc3ccccc3Cl)c2c1` under H5N1 CPE: 1.6

The listing continues.
SMILES | H5N1 CPE
CCOc1ccc(NC(=O)C2CCC(N3C(=O)C4CC=CCC4C3=O)CC2)cc1 (stereo unspecified) | 1.0
CCCc1nc2ccccc2c(=O)n1/N=C/c1ccc(O)c(O)c1 | 9.1
C#CCSc1nc(-c2ccccc2)cc(C(F)(F)F)c1C#N | 0.2
O=c1[nH]c(SCc2ccccc2Cl)nc2c1cnn2-c1ccccc1 | i
COc1ccc(NC(=O)C(F)(OC)C(F)(F)F)c(OC)c1 (stereo unspecified) | i
O=C1NCCN1Cc1cccc(Cl)c1 | 0.6
N#Cc1c(NC(=O)c2ccc(Cn3cc(Br)cn3)o2)sc2c1CCCCCC2 | 0.3
COCCN(CC(=O)Nc1cccc(C)c1)S(=O)(=O)c1ccc(S(=O)(=O)N2CCCC2)cc1 | 0.8
COC(=O)CSC(C(=O)Nc1ccc(C)c(C)c1)c1ccccc1 (stereo unspecified) | i
Cc1cc(NC(=O)CSc2nc(C3CC3)nc3sc(C)c(C)c23)no1 | i
CC(C)CC(NC(=O)C1CCCCC1)C(=O)N1CCN(c2ccccn2)CC1 (stereo unspecified) | i
CC(C)N1C(=O)CC(Nc2ccc(N3CCOCC3)cc2)C1=O (stereo unspecified) | 1.6
CCOC(=O)c1c(C)[nH]c(C)c1C(=O)CSc1nnc(-c2ccncc2)n1Cc1ccccc1 | 0.0
Cc1nc(CS(=O)(=O)c2ccc(Cl)cc2)cc(N2CCOCC2)n1 | 1.2
Cc1ccc(C)c(N2CCN(S(=O)(=O)c3ccc4c(c3)CCN4C(=O)CCC(=O)O)CC2)c1 | 2.0
COc1ccc(/C=C2/C(=O)N=C3SCCN32)cc1 | 1.8
CCOC(=O)c1c(N)sc(C(O)(C(F)(F)F)C(F)(F)F)c1-c1ccc(Cl)cc1 | i
COc1ccc(C(=O)Nc2nnc(-c3ccco3)s2)cc1 | i
Cc1nc2ccccn2c1/C(O)=C1\C(=O)C(=O)N(CCN2CCOCC2)C1c1cccs1 (stereo unspecified) | 0.9
O=C(Oc1ccc(-c2ccccc2)cc1)N1CCCCC1 | i
CCN1CCN(C(c2cccs2)C(C)NC(=O)c2cccc(OC)c2OC)CC1 (stereo unspecified) | 0.1
N/C(COc1ccc(C(=O)O)cc1)=N\O | i
O=S(=O)(c1ccc(Cl)cc1)c1ccccn1 | i
COc1cc(S(=O)(=O)N2CCN(C(=O)c3ccccc3F)CC2)c(OC)cc1NC(C)=O | 0.0
O=C(CSc1n[nH]c(-c2ccco2)n1)N1c2ccccc2Sc2ccccc21 | 4.0
O=C1N/C(=N\N=C\c2ccccn2)SC1Cc1cccc(SC(F)F)c1 (stereo unspecified) | i
Cc1cccc2cc(CN(C(=O)c3cnccn3)C3CCCCC3)c(Cl)nc12 | 1.6
CCn1c(SCC(=O)Nc2ccc3c(c2)OCCO3)nnc1-c1ccccn1 | i
Cn1c(/C=C/c2ccc([N+](=O)[O-])o2)nc2ccccc2c1=O | i
Cc1oc(-c2ccccc2F)nc1CS(=O)(=O)CC(=O)N1CCCCCC1 | i
C=CCn1c(SCC(=O)NCc2ccc3c(c2)OCO3)nnc1C1CCCCC1 | 0.1
CSc1nnc(-c2ccccc2)c(=O)[nH]1 | 0.8
O=C(CNS(=O)(=O)c1ccc(Br)s1)N1CCN(c2ncccn2)CC1 | 0.9
Cc1cc(C)c(C#N)c(N2CCCC(C(N)=O)C2)n1 (stereo unspecified) | 0.5
O=C(c1cnn2c(C(F)F)cc(-c3ccccc3)nc12)N1CCN2CCCC2C1 (stereo unspecified) | 1.7
O=C(CCN1CCCC1Cc1ccccc1)c1ccc2c(c1)OCCO2 (stereo unspecified) | 0.5
CC1=C(C(=O)Nc2ccccc2)C(c2ccc(C)cc2)N=C(Nc2nc3ccccc3o2)N1 (stereo unspecified) | i
CCN(CC)c1ccc(-c2nc3cnccn3c2NC2CCCC2)cc1 | 4.7
CCCCC(=O)Nc1cccc(NC(=O)C(C)C)c1 | 0.1
CCOC(=O)c1c(C)nc2sc3c(c2c1-c1ccc(OC)cc1)NC(c1ccccc1)NC3=O (stereo unspecified) | 2.5
Cc1cc(C)c(NC(=O)CN2C(=O)NC3(CCCCC3)C2=O)c(Cl)c1 | 1.4
CCOC(=O)c1c(NCc2ccc3c(c2)OCO3)c2ccccc2[nH]c1=O | 1.2
CC(=O)c1c(C)nn(C(=O)c2cccs2)c1C | 0.7
Cc1ccc(N2C(=O)c3ccc(C(=O)Nc4cccnc4)cc3C2=O)c(C)c1 | 0.2
Cc1cc(C)n(S(=O)(=O)c2cc(Cl)ccc2Cl)n1 | 0.4
Cc1c(Cl)ccc2c1NC(=O)[C@]21[C@@H]2C(=O)N(Cc3ccccc3)C(=O)[C@@H]2[C@@H]2CCCN21 | 2.9
CC(C)N1CC=C2C(C#N)=C(N)C(C#N)(C#N)C(c3ccccc3)C2C1 (stereo unspecified) | 2.7
COc1cc2c(cc1OC)CN(CC(=O)Nc1ccccc1C#N)CC2 | 1.4
CC(C)CN(C(=O)COC(=O)CCc1c[nH]c2ccccc12)C1CCS(=O)(=O)C1 (stereo unspecified) | 0.0
CCc1c(C)c(C#N)c2nc3ccccc3n2c1Nc1c(C)n(C)n(-c2ccccc2)c1=O | 0.5
CC(C)CCNC(=O)CN(C(=O)Cn1nnc(-c2ccc(F)cc2)n1)C1CCCC1 | i
Cc1ccc2cc(C)c(N3CCN(c4ccccn4)CC3)nc2c1 | 2.2
O=C1c2ccccc2C(=O)N1CC1c2ccccc2CCN1S(=O)(=O)c1ccccc1 (stereo unspecified) | i
Cc1cccn2cc(CSc3ccccc3N)nc12 | 0.9
Cc1nccn1-c1ncnc2sc3c(c12)CCCC3 | 0.5
COc1ccc2c(c1)[nH]c1c(=O)n(Cc3ccccn3)cnc12 | 0.1
COc1ccc([N+](=O)[O-])cc1NC(=O)CSc1ccccc1 | 0.9
O=C(O)c1ccc(Cn2cc(Cl)cn2)cc1 | 0.7
CCOC(=O)c1nn(-c2ccc3c(c2)CCN3C(C)=O)cc1O | i
CCS(=O)(=O)n1nc(-c2ccc(C)cc2)nc1N | 1.2

A second format for 17 compounds above:
smiles,H5N1 CPE
Cc1ccc(N2C(=O)c3ccc(C(=O)Nc4cccnc4)cc3C2=O)c(C)c1,0.2
Cc1cc(C)n(S(=O)(=O)c2cc(Cl)ccc2Cl)n1,0.4
Cc1c(Cl)ccc2c1NC(=O)[C@]21[C@@H]2C(=O)N(Cc3ccccc3)C(=O)[C@@H]2[C@@H]2CCCN21,2.9
CC(C)N1CC=C2C(C#N)=C(N)C(C#N)(C#N)C(c3ccccc3)C2C1 (stereo unspecified),2.7
COc1cc2c(cc1OC)CN(CC(=O)Nc1ccccc1C#N)CC2,1.4
CC(C)CN(C(=O)COC(=O)CCc1c[nH]c2ccccc12)C1CCS(=O)(=O)C1 (stereo unspecified),0.0
CCc1c(C)c(C#N)c2nc3ccccc3n2c1Nc1c(C)n(C)n(-c2ccccc2)c1=O,0.5
CC(C)CCNC(=O)CN(C(=O)Cn1nnc(-c2ccc(F)cc2)n1)C1CCCC1,i
Cc1ccc2cc(C)c(N3CCN(c4ccccn4)CC3)nc2c1,2.2
O=C1c2ccccc2C(=O)N1CC1c2ccccc2CCN1S(=O)(=O)c1ccccc1 (stereo unspecified),i
Cc1cccn2cc(CSc3ccccc3N)nc12,0.9
Cc1nccn1-c1ncnc2sc3c(c12)CCCC3,0.5
COc1ccc2c(c1)[nH]c1c(=O)n(Cc3ccccn3)cnc12,0.1
COc1ccc([N+](=O)[O-])cc1NC(=O)CSc1ccccc1,0.9
O=C(O)c1ccc(Cn2cc(Cl)cn2)cc1,0.7
CCOC(=O)c1nn(-c2ccc3c(c2)CCN3C(C)=O)cc1O,i
CCS(=O)(=O)n1nc(-c2ccc(C)cc2)nc1N,1.2

New compounds follow:
SMILES | H5N1 CPE
CC(=O)Nc1cccc(NC(=O)CSc2nnnn2Cc2ccccc2)c1 | i
O=C(c1cc(C2CC2)on1)N1CCN(c2ccccc2)CC1 | i
COc1cc(NC(=S)NN2CCN(C)CC2)cc(OC)c1 | i
O=C(NCCO)c1c(O)c2cccc3c2n(c1=O)CC3 | 0.3
O=c1c2ccccc2ncn1Cc1nc2ccccc2s1 | 1.5
Cc1cc(C)c2cc(C(c3nnnn3C3CCCC3)N3CCOCC3)c(=O)[nH]c2c1 (stereo unspecified) | i
COc1cc(C(=S)N(C)C)ccc1O | i
COCCn1cc(C(=O)N2CCCC(C)C2)c2c3ccccc3n(C)c2c1=O (stereo unspecified) | 1.4
CCCCCCCOc1ccc(OC(=O)c2ccncc2)cc1 | i
O=C(c1ccc2c(c1)OCO2)N1CCc2ccccc2C1 | i
O=C(Cn1nc(Cc2cccnc2)c2ccccc2c1=O)NCCCN1CCCC1=O | 1.9
COCCCn1c(SCC(=O)N2CCCC(C)C2)nnc1-c1ccco1 (stereo unspecified) | 0.6
N#Cc1c(N)nc2c(c1N)CC(CO)O2 (stereo unspecified) | i
CCc1nnc(NC(=O)CCC(=O)N2CCN(Cc3ccccc3)CC2)s1 | 0.7
O=C(CCn1[nH]c(=O)c2ccccc2c1=O)OC1CCCCC1 | 0.1
CCNc1nc(N)nc(Oc2ccc(C(=O)OC)cc2)n1 | i
CS(=O)(=O)N(CC(=O)NCc1ccco1)Cc1ccc(Cl)cc1 | i
Cc1cc(=O)[nH]c(SCC(=O)c2ccccc2)c1C#N | 0.6
COc1cccc(NC(=O)N(Cc2ccco2)C(C)c2cccs2)c1 (stereo unspecified) | 0.4
c1cnc(N2CCN(c3nc4ccccc4n4cnnc34)CC2)nc1 | 1.3
Cc1ccc2oc(-c3ccc(C)c(NC(=O)Cc4cccs4)c3)nc2c1 | 0.1
S=c1nc(-c2ccco2)[nH][nH]1 | 0.1
Cc1cc(OCCCCN2C(=O)NC(C)(C)C2=O)cc(C)c1Cl | i
CSc1nc(C)c(CCOC(=O)c2ccccc2)c(=O)[nH]1 | i
COc1cc(NS(=O)(=O)c2ccc(NC(=S)NC(=O)C(C)(C)C)cc2)nc(OC)n1 | i
COc1ccccc1N1CCN(C/C(O)=C(\C#N)c2nc(-c3ccccc3)cs2)CC1 | 0.3
Cc1ccc(NC(=O)N2CCCC2C(=O)NCCC2=CCCCC2)cc1 (stereo unspecified) | i
COCC(C)n1c(-c2ccc3c(c2)NC(=O)CO3)csc1=Nc1ccc(OC(F)F)cc1 (stereo unspecified) | 1.8
COc1cccc(C(=O)N(Cc2cc3cc(C)ccc3[nH]c2=O)CC2CCCO2)c1 (stereo unspecified) | i
COc1ccccc1NC(=S)N(CCc1nc2cc(C)c(C)cc2[nH]1)Cc1cccnc1 | 1.2
Cc1c(C)[n+](=O)c2c(n1[O-])CCC2 | 0.2
Cc1ccc(S(=O)(=O)N2CCN(C(=O)N3CCOCC3)C2c2ccc(N(C)C)cc2)cc1 (stereo unspecified) | 1.0
Cc1ccc(C(=O)N/C(=C\c2cccs2)C(=O)NCCCn2ccnc2)cc1C | 0.8
CC(=O)N1CCN(c2ccc(NC(=O)COc3ccc(Cl)cc3Cl)cc2)CC1 | 0.6
COc1ccccc1-c1noc(-c2cccnc2)n1 | 0.1
Nc1cc2c(cc1C(=O)c1ccc(Cl)cc1)OCCO2 | i
Cc1ccc(C(=O)NC(Cc2c[nH]c3ccccc23)C(=O)O)o1 (stereo unspecified) | i
CCOC(=O)c1ccc(N2C(=O)CC(Sc3nnc(C)s3)C2=O)cc1 (stereo unspecified) | 0.6
CCOc1ccccc1C(=O)NCCCn1ccnc1 | 0.6
O=c1c2cnn(-c3ccc(F)cc3)c2ncn1Cc1ccccn1 | 1.0
CC1(C(=O)N(CC(=O)NC2CCCC2)Cc2ccco2)CC(=O)N=C2C=CC=CN21 (stereo unspecified) | i
CCn1c(=N)n(CC(=O)c2ccc(OC)cc2)c2ccccc21 | i
Oc1c(C=NCc2ccncc2)sc2ccccc12 | 0.1
Fc1cccc(Cl)c1CSc1nnc(COc2cccc3cccnc23)o1 | 2.4
CCOC(=O)N1CCN(c2nnnn2-c2ccccc2)CC1 | i
N#Cc1cnn(Cc2ccc(Cl)cc2)c1N | 2.1
CC(C)C(=O)N(c1ccc2oc(=O)sc2c1)S(=O)(=O)c1cccs1 | i
O=C(Nc1ccccc1N1CCN(C(=O)c2ccc(Cl)cc2)CC1)c1cccnc1 | 0.8
CC(=O)OCC(=O)NCc1ccc2c(c1)OCO2 | i
COc1ccc(-c2nnn(Cc3nc(N)nc(N4CCOCC4)n3)n2)cc1OC | 0.7

Bioassay records: PubChem, SRMLSC
